High-throughput results from PubChem BioAssay.
V. cholerae QS = Vibrio cholerae quorum sensing activators, luminescence (AID 686977); V. cholerae quorum sensing reporter, luminescence, 6 h; higher luminescence means a stronger effect; most inactives read 0; luminescence at 50 µM unless noted, or EC50 in µM where a hit was titrated; 9,400 tested, under 10 active;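 active means light above mean plus 3 SD and confirmed in a dose series; inconclusive means above that limit without a clear retest; inactive means below it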;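 further: raw light counts without normalisation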
* marks the source's active call; other numbers are inactive results; ? = inconclusive; [ ] = dose if it differs, or a comment. An excerpt (hit frequency here may not be typical).

SMILES | V. cholerae QS
CCCC(=Nc1ccc(N)cc1)C1=C(O)C(C(=O)OC)C(C)(C)CC1=O (stereo unspecified) | 0
CC(O)CNc1ncnc2nc[nH]c12 (stereo unspecified) | 0
Cc1nc(N2CCN(C)CC2)c2sc(=S)n(C)c2n1 | 0
CCOC(=O)CN(c1cccc(C(C)=O)c1)S(C)(=O)=O | 0
CCOC(=O)CN1CC23C=CC(O2)C(C(=O)NCCc2ccccc2)C3C1=O (stereo unspecified) | 0
CCOC(=O)N1CCN(c2c(NCc3ccc(Cl)cc3)c(=O)c2=O)CC1 | 40
COc1ccc(C(Cl)=C(c2ccc(OC)cc2)c2ccc(OC)cc2)cc1 | 0[10 µg/mL]
C[C@@H]1O[C@@H](O[C@@H]2C=C3CCC4C(CC[C@]5(C)[C@@H](c6ccc(=O)oc6)CC[C@]45O)[C@@]3(C)CC2)[C@H](O)[C@H](O)[C@H]1O (stereo partly specified) | 0[10 µg/mL]
O=c1cc(O)c2c(=O)[nH]c(=O)n(-c3ccccc3)c2[nH]1 | 0
COC(=O)COc1ccc(C(=O)OC)cc1 | 0
Cc1c(NC(C)C)c(=O)n(-c2ccccc2)n1C | 0[10 µg/mL]
CC(C)CCNC(=O)CCCn1c(=O)[nH]c2ccc(Br)cc2c1=O | 40
CCOC(=O)c1ccccc1NC(=O)C1COc2ccccc2O1 (stereo unspecified) | ?
CCN(CC)C(=O)CC1(c2ccccc2OC)CCOC(C(C)C)C1 (stereo unspecified) | 0
Cc1ccc(-c2nn3c(C)nnc3s2)cc1NC(=O)c1ccc(OC(C)C)cc1 | 0
COc1ccccc1-n1c(CNC(=O)COc2ccccc2)n[nH]c1=S | 40
COc1ccc(-c2nc(CSCC(=O)N3CCc4ccccc4C3)c(C)o2)cc1OC | 0
CS(=O)(=O)N(CC(=O)Nc1cccnc1)c1ccc2c(c1)OCO2 | 40
CCOC(=O)c1cc2c(C)n(-c3ccc(OCC)cc3)c(C)c2ccc1=O | 0
COc1ccccc1N1CCN(CC(=O)c2ccc3ccn(C(C)=O)c3c2)CC1 | 0

Three of the compounds above, as a markdown table.
| smiles | V. cholerae QS |
| --- | --- |
| COc1ccccc1-n1c(CNC(=O)COc2ccccc2)n[nH]c1=S | 40 |
| CC(C)CCNC(=O)CCCn1c(=O)[nH]c2ccc(Br)cc2c1=O | 40 |
| Cc1c(NC(C)C)c(=O)n(-c2ccccc2)n1C | 0[10 µg/mL] |

Next section
SMILES | V. cholerae QS
Cc1ccc(-n2sc3ccccc3c2=O)cc1S(=O)(=O)N1CCCCC1 | 280
CCC1(c2cccc(O)c2)CCCCN(C)C1 (stereo unspecified) | 0[10 µg/mL]
CCNc1nc(N)c(C(=C(C#N)C#N)c2ccccc2)s1 | 0
Cc1nc(N2CCN(c3ccccc3)CC2)nc2c1C(=O)CC(c1ccccc1)C2 (stereo unspecified) | 40
O=C(O)c1ccc(-c2ccc(Cl)cc2Cl)o1 | 40
Cc1cc(NC(=O)CC(CN(C)S(=O)(=O)c2ccccc2)c2ccccc2)no1 (stereo unspecified) | 40
Cc1nc(NC(=O)C2CC3CCCC(C2)C3=O)sc1C (stereo unspecified) | 0
O=C(NCCCN1CCOCC1)c1cc2ccccc2o1 | 40
CCCn1c(CCC(=O)O)ccc1-c1ccc(F)cc1 | 40
CCOC(=O)c1ccn(-c2nc(-c3ccco3)cc(C(F)(F)F)n2)n1 | 0
CC1CCc2nc(NC(=O)CCSc3ccccc3)sc2C1 (stereo unspecified) | 720
CCn1ncc(C2=NOC(C(=O)Nc3cccc(C(C)=O)c3)C2)c1C (stereo unspecified) | 40
CCN(C(=O)c1cc2cc(OC)ccc2oc1=O)c1cccc(C)c1 | 0
CCOc1ccc2ccccc2c1C(=O)N[C@@H]1C(=O)N2[C@@H]1SC(C)(C)[C@@H]2C(=O)O | 0[10 µg/mL]
CCC(C)NC(=O)c1cnn2c1NC(c1cccs1)CC2C(F)(F)F (stereo unspecified) | 440
COCC(C)n1c(C)cc(C(=O)COC(=O)c2n[nH]c3ccccc23)c1C (stereo unspecified) | 0
O=c1ccc(Br)c[nH]1 | 40
Cc1cc(NC(=O)c2cccc(COc3ccc(Br)cc3)c2)no1 | 0
CC1CC(=O)C2=C(C1)Nc1ccccc1N=C2 (stereo unspecified) | 0
CC1(C)N=C(N)NC(Nc2ccc(Br)cc2)=N1 | 40
CCOC(=O)C(C)Sc1nnc(Cc2cc(=O)[nH]c(=O)[nH]2)n1-c1cccc(OC)c1 (stereo unspecified) | 40
CCCCCn1c(S(=O)(=O)O)nc2ccccc21 | 0
COc1ccc(/C(C)=N/NC(=O)c2nc(C)cc(C)n2)cc1 | 40
Cc1ccc(C(=O)c2c[nH]c(C(=O)NCCCN3CCOCC3)c2)cc1 | 0
Cc1nc2ccc(S(=O)(=O)NC(C(=O)NCc3cccs3)C(C)C)cc2s1 (stereo unspecified) | 0
COc1cc(CNc2ccc3[nH]c(=O)[nH]c3c2)cc(Br)c1OCC(=O)NC(C)(C)C | 0
CC(SC(=S)N1CCOCC1)C(=O)O (stereo unspecified) | 40
Cc1cc(C)c2c(=O)cc(C(F)F)oc2c1 | 40
COc1cccc(C(=O)O/N=C/c2ccc(Sc3ccc(C)cc3)nc2)c1 | 0
CNC(=O)c1sccc1SCc1c(Cl)cccc1Cl | 40
Cn1ccnc1SCC(=O)NC1CC1 | ?
Cc1cc2ncn(C3CC(=O)N(Cc4ccc(N5CCCC5=O)cc4)C3=O)c2cc1C (stereo unspecified) | 0
CCc1nnc(NC(=O)Cn2nc(-c3ccccc3OC)ccc2=O)s1 | 0
Cc1ccc(NC(=O)c2ccc(NCC3CCCO3)c([N+](=O)[O-])c2)cc1Cl (stereo unspecified) | 40
Cc1ccc(C(=O)Nc2c(C(=O)NCc3ccco3)cnn2-c2ccccc2)cc1 | 0
O=C(CCSc1ccccc1)Nc1nc2c(s1)COc1ccccc1-2 | 400
Cc1cccc(CN2C(=O)N/C(=C/c3ccc(C)s3)C2=O)c1 | 0
COC(=O)c1nc2n(n1)C(c1cc(OC)ccc1OC)C(C(=O)OC1CCCCC1)=C(C)N2 (stereo unspecified) | 0
C[C@@H]1CN(C2CCC(C#N)(c3ccc(F)cc3)CC2)CC[C@]1(C(=O)O)c1ccccc1 (stereo partly specified) | 0[10 µg/mL]
CN(C)C(=O)N1CCC(C(=O)NCc2ccc3c(c2)OCO3)CC1 | 0
COC(=O)CCN(C1CCCCC1)S(=O)(=O)c1ccc(S(=O)(=O)NC2CCCCC2)cc1 | 40
Cc1cc(=O)[nH]c2c1c(C)nn2C1CCCCC1 | 0
COc1ccc(S(=O)(=O)N2CCN(c3c(C)cccc3C)CC2)cc1OC | 40
COc1ccc2c(C)cc(SCC(=O)N3CCOCC3)nc2c1 | 40
COc1ccc(CC2S/C(=C(\C#N)C(=O)NCc3ccco3)N(c3ccc(C)cc3)C2=O)cc1 (stereo unspecified) | 0
CCC(C)NC(=O)CS(=O)(=O)Cc1nc(-c2cccc(OC)c2)oc1C (stereo unspecified) | 0
Cc1ccc(S(=O)(=O)N2CCN(S(=O)(=O)c3ccc(C)cc3)C2)cc1 | 0
CCCCn1c(C(C)NC(=O)CC)nc2ccccc21 (stereo unspecified) | 0
CCCCn1nnnc1SCC(=O)Nc1ccc(F)cc1 | 0
COc1cccc(OC)c1C(=O)n1nc(C)cc1C | 0

Arranged by number of heavy atoms (high to low): some entries from above.
SMILES | V. cholerae QS
COC(=O)CCN(C1CCCCC1)S(=O)(=O)c1ccc(S(=O)(=O)NC2CCCCC2)cc1 | 40
COc1ccc(S(=O)(=O)N2CCN(c3c(C)cccc3C)CC2)cc1OC | 40
Cc1ccc(S(=O)(=O)N2CCN(S(=O)(=O)c3ccc(C)cc3)C2)cc1 | 0
COc1ccc2c(C)cc(SCC(=O)N3CCOCC3)nc2c1 | 40
CCCCn1nnnc1SCC(=O)Nc1ccc(F)cc1 | 0
COc1cccc(OC)c1C(=O)n1nc(C)cc1C | 0
Cc1cc(=O)[nH]c2c1c(C)nn2C1CCCCC1 | 0

New compounds follow
SMILES | V. cholerae QS
Cn1nc(CC(=O)NCc2cccc3ccccc23)c2ccccc2c1=O | 0
CN(C)C(CNS(=O)(=O)c1ccc(Cl)cc1)c1cccnc1 (stereo unspecified) | 0
CC(C)CNC(=O)c1coc(=O)c(Br)c1 | 0
CCOc1ccc(C2c3c(oc4cc(C)c(C)cc4c3=O)C(=O)N2CCCN2CCOCC2)cc1 (stereo unspecified) | 0
CC(C)NCC(O)COc1ccc(CCOCC2CC2)cc1 (stereo unspecified) | 0[10 µg/mL]
COC(=O)c1ccc(Cl)c(NC(=O)CN(c2ccc3c(c2)OCO3)S(C)(=O)=O)c1 | 0
O=C(c1ccc(NC2=NC3CS(=O)(=O)CC3S2)cc1)N1CCN(Cc2ccccc2)CC1 (stereo unspecified) | 160
COc1ccccc1-n1c(CNC(=O)c2ccco2)nnc1SCC(=O)Nc1nccs1 | 0
Cc1ccnc(NS(=O)(=O)c2ccc(N)cc2)n1 | 0[10 µg/mL]
O=C(Oc1nsnc1N1CCOCC1)N(c1ccccc1)c1ccccc1 | 40
COc1cccc(-n2nc(-c3ccnn3-c3ccc(C)cc3)c(=O)n(C)c2=O)c1 | 0
Nc1c2c(nc3ccccc13)CCCC2 | 40[10 µg/mL]
CCC(C)Oc1nc2ccccc2nc1NS(=O)(=O)c1ccccc1 (stereo unspecified) | 0
CCOc1ccc(C(=O)Nc2ccccc2-c2ccccc2)cc1Cl | 0
COc1ccc(-n2nnnc2SCC(=O)Nc2nnn(C)n2)cc1 | 0
Cn1c(CCNC(=O)C(C)(C)C)nc2ccccc21 | 0
CCn1cc(C(=O)O)c(=O)c2cc(Br)ccc21 | 0
CN1C=C(C(F)(F)F)C=C/C1=C(\C#N)c1nnc2n1CCCCC2 | 0
Cc1ccccc1-n1c(Cn2c(=O)sc3ccccc32)nnc1SCC(=O)N1CCCC1 | 0
Cc1ccc(CNc2ncnc3cc(Cl)ccc23)o1 | 0
Cc1ccc(CNC(=O)c2nc3nc(C)cc(C)n3n2)cc1 | 0
O=S(=O)(Nc1cccc2cccnc12)c1ccc(S(=O)(=O)N2CCCC2)cc1 | 240
COc1ccc(Cl)cc1N(CC(=O)Nc1ccc2c(c1)OCO2)S(C)(=O)=O | 0
COc1ccc(C(=O)O)cc1F | 200
Cc1nnc(NCCc2ccccc2)[nH]c1=O | 0
C/C=C(\C)C(=O)O[C@H]1[C@H](OC(C)=O)[C@@]2(CO)C(CC1(C)C)C1=CC[C@@H]3[C@@]4(C)CC[C@H](O[C@@H]5O[C@H](C(=O)O)[C@@H](O[C@@H]6O[C@H](CO)[C@@H](O)[C@H](O)[C@H]6O)[C@H](O)[C@H]5O[C@@H]5O[C@H](CO)[C@@H](O)[C@H](O)[C@H]5O)[C@](C)(CO)C4CC[C@@]3(C)[C@]1(C)C[C@H]2O (stereo partly specified) | 0[10 µg/mL]
Cc1ccc(C(=O)NNC(=O)C2CCN(c3nc(C)cc(C)n3)CC2)cc1 | 0
c1cncc(-c2csc(NCc3ccco3)n2)c1 | 40
Cc1noc(C)c1S(=O)(=O)N1CCCC(C(=O)Nc2nccs2)C1 (stereo unspecified) | 0
COc1cccc2c1C(=O)c1c(O)c3c(c(O)c1C2=O)C[C@@](O)(C(C)=O)C[C@@H]3O[C@H]1C[C@H](N)[C@H](O)[C@H](C)O1 | 40[10 µg/mL]
COCc1cc(C)nc(Nc2ccc(C)cc2C)c1C#N | 40
O=C(COc1ccccc1)NCCSCc1ccco1 | 40
O=c1c(O)c(-c2ccc(O)c(O)c2)oc2cc(O)cc(O)c12 | 0[10 µg/mL]
COC(=O)Cc1ccc(NC(=S)NCCCO)cc1 | 0
CCN=C1SCC(=O)N1c1ccc(OC)cc1 | 40
COc1ccc(Cl)cc1C(=O)N1CCN=C1SC | 280
O=C(COc1ccc(F)cc1Br)N1CCc2ccccc21 | 200
CCOC(=O)CN(C(=O)Cn1nnc2ccccc21)C(C(=O)NCCOC)c1ccccc1C (stereo unspecified) | 0
O=C(CN1CCN(c2nc(-c3ccccc3)cs2)CC1)NNC(=O)c1ccc(Br)cc1 | 0
Cc1ccc(C)c(Nc2ncnc3nc[nH]c23)c1 | 0
CC(=O)c1cccc(NC(=O)c2cc3nc(C)cc(C)n3n2)c1 | 0
CCCn1c(C)cc(C(=O)CN2C(=O)c3cccc(N)c3C2=O)c1C | 0
Cc1c(C#N)c2ncn(Cc3ccccc3)c(=O)c2n1-c1ccccc1 | 0
CC(=O)Nc1cc2ccc(OC(C)=O)cc2oc1=O | 40
O=C(OCC(O)CO)c1ccccc1Nc1ccnc2cc(Cl)ccc12 (stereo unspecified) | 0[10 µg/mL]
COc1ccc(N2CSC3=C(C#N)C(c4cccc(OC)c4OC)CC(=O)N3C2)cc1 (stereo unspecified) | 240
CN(c1ccccc1)S(=O)(=O)c1ccc(C(=O)Nc2nccs2)cc1 | 0
COc1ccc2c(c1)[C@]13CCCC[C@@H]1[C@H](C2)N(C)CC3 | 0[10 µg/mL]
OC(CCN1CCCCC1)(c1ccccc1)C1C[C@@H]2C=C[C@H]1C2 (stereo partly specified) | 0[10 µg/mL]
CCCc1cc(C(=O)Nc2ccc(F)cc2F)no1 | 0
The list goes on:
SMILES | V. cholerae QS
CCOC(=O)CCNC(C(=O)OCC)c1ccccc1 (stereo unspecified) | 0
Cn1c(Cn2c(=O)sc3ccccc32)nnc1SCc1ccccc1F | ?
CCN(CC)Cc1nc2c(c(=O)[nH]1)C1(CCCC1)Cc1ccccc1-2 | 0
O=C(ONC1=NCCCCC1)c1c(F)cccc1F | 240
c1ccc(CNc2nc3ccccc3n3cnnc23)cc1 | 0
COc1ccc(-n2c(Cc3cccn3C)nnc2SCC(=O)NCC2CCCO2)cc1 (stereo unspecified) | 40
COc1ccccc1CN1C(=O)CN(C2CCCC2)C(=O)C1c1ccc(F)cc1 (stereo unspecified) | 40
Cc1cccc(-c2nc(CS(=O)CC(=O)NCc3cccs3)c(C)o2)c1 (stereo unspecified) | 0
COC(=O)CSc1nsc(SCC(=O)OC)n1 | 0
